# HIV Env fusion: inhibitors of HIV-1 Env-driven cell-cell fusion, primary screen, HeLa-JRFL effector, CEM21 target cells, luciferase; inhibition, % at 12.3 µM; AID 651610, 2012; actives 1.1% (n = 360,000);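 active means mean replicate inhibition score of at least 50 and every replicate individually at or above 50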;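 further: 0% = plate neutral controls and 100% = maraviroc near 300 nM; one replicate is shown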
# An asterisk follows results filed as active; [ ] = dose if it differs, or a comment. These rows are one share of the data; the hit share may differ from the screen's.
Molecule,HIV Env fusion
Cc1noc(C)c1NC(=O)Nc1ccc2c(c1)C(=O)N([C@@H](C)CO)C[C@@H](C)[C@@H](CN(C)S(=O)(=O)c1ccc(Cl)cc1)OCCCC[C@@H](C)O2,-83.8[16.7 µM]
O=C(NC1CCC1)[C@@H]1[C@@H](CO)[C@@H]2Cn3c(cccc3=O)[C@H]1N2Cc1cc(F)ccc1F,-2.3[16.7 µM]
C[C@@H]1CN([C@@H](C)CO)C(=O)c2ccccc2-c2ccccc2CO[C@@H]1CN(C)S(=O)(=O)c1cccc(F)c1,14.2[16.7 µM]
COc1cccc(S(=O)(=O)Nc2ccc3c(c2)[C@@H]2C[C@@H](CC(=O)NCc4ccccc4F)O[C@H](CO)[C@@H]2O3)c1,6.6[16.7 µM]
CC(C)[C@H](NC(=O)C1CCCC1)C(=O)N1CCC[C@H]1C(=O)NCCc1ccccc1Cl,-2.9
C[C@@H]1CCCCO[C@H](CN(C)C(=O)c2ccccc2)[C@H](C)CN([C@H](C)CO)C(=O)c2cc(NC(=O)c3ccccc3)ccc2O1,-2.3[16.7 µM]
CCC(C)CN1C(=O)CSCC1(C)C(=O)NCc1ccccc1 (stereo unspecified),-8.1
C[C@H]1CN([C@@H](C)CO)C(=O)c2cc(NC(=O)Cc3ccccc3)ccc2O[C@H]1CN(C)C(=O)Nc1ccc(C(F)(F)F)cc1,2.6[16.7 µM]
Cc1noc(C)c1NC(=O)Nc1cccc2c1O[C@@H](CN(C)Cc1ccncc1)[C@H](C)CN([C@H](C)CO)C2=O,10.9[16.7 µM]
C/C=C/CN(C(=O)C#Cc1ccccc1)[C@H](CO[Si](C)(C)C(C)(C)C)c1ccccc1,2.4[16.7 µM]
COc1ccc(NC(=O)N(C)C[C@@H]2Oc3ccc(NS(=O)(=O)c4ccccc4)cc3CC(=O)N([C@@H](C)CO)C[C@@H]2C)cc1,-34.5[16.7 µM]
Cc1noc(C)c1NC(=O)Nc1ccc2c(c1)C(=O)N([C@@H](C)CO)C[C@@H](C)[C@H](CN(C)Cc1ccc(C(F)(F)F)cc1)O2,-5.4[16.7 µM]
CO[C@@H]1CC[C@@H]2CCOc3c(C#N)cccc3C(=O)N(C)CC3(CCCCC3)CC(=O)N(C)C[C@H]1O2,1.8[16.7 µM]
CCNC(=O)C[C@@H]1CC[C@@H]2[C@H](COC[C@@H](O)CN2C(=O)c2ccccn2)O1,64.7*[16.7 µM]
CCCC(=O)Nc1ccc2c(c1)OC[C@H](C)N(Cc1ccccn1)C[C@@H](C)[C@H](OC)CN(C)C2=O,2.3[16.7 µM]
CCCCN1CC(COCc2ccccc2)Oc2cccc(Oc3ccc(SC)c(C)c3)c2S1(=O)=O (stereo unspecified),9.1
C#CCN(Cc1cccc(F)c1)C(=O)c1nnc2c3cc(F)ccc3n(S(=O)(=O)c3ccc(OC)cc3)c2n1,17.0
CN1C(=O)c2cc(NC(=O)c3ccccc3F)ccc2OC[C@@H]2O[C@H](CC(=O)NCc3ccc4c(c3)OCO4)CC[C@@H]21,33.8[16.7 µM]
O=C(C[C@H]1CC[C@@H](NC(=O)c2cccc(F)c2)[C@H](CO)O1)NCCN1CCCC1,9.7[16.7 µM]
O=C([C@@H]1[C@@H](CO)[C@@H]2Cn3c(ccc(C4=CCCCC4)c3=O)[C@H]1N2Cc1nccs1)N1CCCCC1,11.0[16.7 µM]
COC(=O)[C@]12C[C@H](CC(=O)NCc3cccc4ccccc34)C(=O)N(Cc3ccccc3)C1=C[C@H](C(C)(C)C)O[C@@H]2C,19.2
CC(C)NC(=O)NCC[C@@H]1CC[C@@H](NS(=O)(=O)c2ccc(Oc3ccccc3)cc2)[C@H](CO)O1,6.6[16.7 µM]
COC(=O)C[C@@H]1CC[C@H]2[C@@H](COC[C@H](O)CN2C(=O)Nc2ccccc2OC)O1,15.6[16.7 µM]
CCCC(=O)Nc1ccc2c(c1)OC[C@H](C)N(CCC)C[C@@H](C)[C@H](OC)CN(C)C2=O,-3.4[16.7 µM]
CN1C(=O)c2cc(NC(=O)Cc3cccs3)ccc2OC[C@H]2O[C@@H](CC(=O)NCCc3ccncc3)CC[C@H]21,3.2[16.7 µM]
O=C(C[C@@H]1CC[C@@H]2[C@H](COC[C@H](O)CN2C(=O)c2cccnc2)O1)NC1Cc2ccccc2C1,-0.6[16.7 µM]
CNC[C@@H]1OCCCC[C@H](C)Oc2ccc(NC(=O)NC3CCCCC3)cc2C(=O)N([C@H](C)CO)C[C@@H]1C,2.2[16.7 µM]
Fc1ccc2cnc(-c3ccsc3)cc2c1,-84.8
CO[C@H]1CN(C)C(=O)c2cc(NC(=O)NC(C)C)ccc2OC[C@H](C)N(C(=O)C2CCC2)C[C@@H]1C,-13.3[16.7 µM]
C[C@H]1CN([C@@H](C)CO)C(=O)c2c(c3ccccc3n2C)-c2ccccc2CO[C@@H]1CN(C)S(=O)(=O)c1ccccc1C#N,-28.5[16.7 µM]
Cc1ccc(F)cc1S(=O)(=O)N[C@@H]1CCN(Cc2ccc(-c3ccccc3)cc2)C1,-7.1[16.7 µM]
CO[C@@H]1CC[C@@H]2CCOc3ccc(C#N)cc3C(=O)N(C)C[C@@H](OC)[C@@H](C)C(=O)N(C)C[C@H]1O2,3.0[16.7 µM]
C[C@H](C(=O)N(C)C[C@@H]1OCc2ccccc2-c2ccccc2C(=O)N([C@@H](C)CO)C[C@H]1C)c1ccccc1,59.0*[16.7 µM]
COc1ccc2c3c([nH]c2c1)[C@@H](CO)N(C(=O)Nc1cccc(F)c1)CC31CN(S(=O)(=O)c2cccc(C)c2)C1,79.9*[16.7 µM]
CC(C)(C)[S@@](=O)N1Cc2cc(C(=O)NCCN3CCCC3)nc(-c3cccc(-c4ccc(C#N)cc4)c3)c2[C@H]1CCO,-13.1[16.7 µM]
CN(C)C(=O)c1cccc(-c2ccc3n(c2=O)C[C@H]2[C@H](CO)[C@@H](C(=O)NCC4CC4)N[C@@H]32)c1,5.6[16.7 µM]
CCS(=O)(=O)Nc1ccc2c(c1)C(=O)N(C)[C@@H]1CC[C@@H](CC(=O)N[C@@H]3CCN(Cc4ccccc4)C3)O[C@H]1CO2,-11.9[16.7 µM]
CCNC(=O)Nc1ccc2c(c1)C(=O)N(C)[C@@H]1CC[C@H](CC(=O)N[C@@H](C)c3ccccc3)O[C@@H]1CO2,4.3[16.7 µM]
O=C(C[C@@H]1CC[C@@H]2[C@H](COC[C@@H](O)CN2Cc2cccc(-c3ccncc3)c2)O1)N1CCOCC1,-3.6[16.7 µM]
COc1ccc(OC(=O)N(C)C[C@H]2OCc3cn(nn3)CCCC(=O)N([C@@H](C)CO)C[C@H]2C)cc1,0.3[16.7 µM]
COc1ccccc1-c1cccc(-c2nc(C(=O)Nc3nccs3)cc3c2[C@H](CCO)N(C(=O)CC2CC2)C3)c1,22.4[16.7 µM]
CCS(=O)(=O)Nc1ccc2c(c1)C(=O)N(C)C[C@H](OC)[C@@H](C)CN(Cc1ccccn1)[C@H](C)CO2,13.0[16.7 µM]
CNC[C@@H]1Oc2ccc(NS(=O)(=O)c3ccccc3)cc2CC(=O)N([C@@H](C)CO)C[C@H]1C,4.3[16.7 µM]
COc1ccc(CN(C)C[C@H]2Oc3ccc(NC(=O)c4ccncc4)cc3CC(=O)N([C@H](C)CO)C[C@H]2C)cc1,-3.7[16.7 µM]
O=C(NCC(F)(F)F)[C@@H]1[C@@H](CO)[C@@H]2Cn3c(cccc3=O)[C@H]1N2CC1CCOCC1,-1.8[16.7 µM]
OCC(CCc1c[nH]c2ccccc12)c1c[nH]c2ccccc12 (stereo unspecified),5.5
CC(C)(C)[S@](=O)N1Cc2cc(C(=O)NCCN3CCCCC3)nc(-c3cccc(-c4ccc(C#N)cc4)c3)c2[C@@H]1CCO,8.3[16.7 µM]
CCCNC(=O)N1CCC2(CC1)CN(C(=O)CC)[C@H](CO)c1[nH]c3cc(OC)ccc3c12,-29.8[16.7 µM]
COC(=O)c1cc2c(c3c4cc(OC)ccc4n(S(=O)(=O)c4ccc(OC)cc4)c13)C(=O)N(Cc1ccc(C(F)(F)F)cc1)C2,-8.2
COc1ccc(C(=O)Nc2ccc3c(c2)C(=O)N(C)[C@@H]2CC[C@@H](CC(=O)NCC4CC4)O[C@@H]2CO3)cc1,10.2[16.7 µM]

# Additional records follow:
Molecule,HIV Env fusion
Cc1ccc(-c2cnc3c(c2)C(=O)N([C@@H](C)CO)C[C@@H](C)[C@H](CN(C)S(C)(=O)=O)O3)cc1,-0.5[16.7 µM]
CN(C)C(=O)C[C@@H]1CC[C@H](NC(=O)C2CCOCC2)[C@@H](CO)O1,-6.8[16.7 µM]
CO[C@@H]1CN(C)C(=O)c2cc(NC(=O)c3ccc(Oc4ccccc4)cc3)ccc2OC[C@H](C)NC[C@H]1C,-1.5[16.7 µM]
O=C(C[C@@H]1CC[C@@H]2[C@H](COC[C@@H](O)CN2Cc2cccc(C(F)(F)F)c2)O1)NCc1ccc(Cl)cc1,-6.8[16.7 µM]
CO[C@H]1CN(C)C(=O)c2ccc(NC(=O)c3ccc(F)cc3)cc2OC[C@@H](C)N(C(=O)CC2CC2)C[C@H]1C,-2.0[16.7 µM]
COC(=O)C1=C(C)N(Cc2ccc(F)cc2)C(=S)NC1c1cccc(OC)c1 (stereo unspecified),-2.4
CC(C)NC(=O)N(C)C[C@H]1Oc2c(NS(=O)(=O)c3cccs3)cccc2C(=O)N([C@@H](C)CO)C[C@H]1C,-60.1[16.7 µM]
COCC(=O)Nc1ccc2c(c1)OC[C@@H](C)N(C(=O)c1ccccn1)C[C@@H](C)[C@@H](OC)CN(C)C2=O,2.8[16.7 µM]
Nc1[nH]c(C(=O)c2ccccc2)c(-c2ccc(Cl)cc2)c1C(=O)c1c[nH]c2cc(F)ccc12,-2.3
O=c1c2ccccc2nnn1Cc1ccco1,-24.2
O=S1(=O)CCSC[C@@H](CNCc2ccco2)N1,39.7
COc1ccc(NC(=O)N(C)C[C@H]2Oc3ccc(NS(=O)(=O)c4ccccc4)cc3CC(=O)N([C@H](C)CO)C[C@H]2C)cc1,4.8[16.7 µM]
CO[C@@H]1CN(C)C(=O)c2ccc(NC(=O)c3ccccc3)cc2OC[C@H](C)N(C(=O)C2CC2)C[C@H]1C,1.3[16.7 µM]
C=CCCC1CN(Cc2ccc(OC)cc2)S(=O)(=O)c2c(cccc2N(C)S(=O)(=O)c2ccc(C)cc2)O1 (stereo unspecified),-7.5
CO[C@H]1CN(C)C(=O)c2cc(NC(=O)C3CC3)ccc2OC[C@@H](C)N(C(=O)c2ccccc2F)C[C@@H]1C,-14.5[16.7 µM]
Cc1nn(C)cc1NC(=O)C[C@H]1CC[C@@H]2[C@H](COc3ccc(NC(=O)C4CCOCC4)cc3C(=O)N2C)O1,9.3[16.7 µM]
O=C(C[C@H]1CC[C@@H]2[C@H](COC[C@H](O)CN2S(=O)(=O)c2ccccc2F)O1)NCc1ccccc1F,-21.9[16.7 µM]
CC1CCCN(c2cccc3c2S(=O)(=O)N(Cc2cccc(F)c2)[C@@H](C)[C@H](c2ccccc2)O3)C1 (stereo partly specified),31.5
C[C@H](CO)N1C[C@H](C)[C@@H](CN(C)Cc2ccncc2)OCc2cn(nn2)CCCC1=O,-13.0[16.7 µM]
C[C@@H]1CCCCO[C@@H](CN(C)CC2CC2)[C@H](C)CN([C@@H](C)CO)C(=O)c2cc(NC(=O)CCC(F)(F)F)ccc2O1,-13.0[16.7 µM]
Cc1ccc(-c2c(C(=O)c3ccccc3)[nH]c(N)c2C(=O)NCCc2c[nH]c3ccccc23)cc1,-94.9
O=C1NC[C@@H](CCCCN2C[C@H](Cc3ccc(O)cc3)N(CC3CCCCC3)C(=O)C2=O)N(Cc2ccccc2)C1=O,15.6
COc1ccc2c3c(n(C)c2c1)[C@H](CO)N(C(=O)NC(C)C)CC31CN(C(=O)NC(C)C)C1,-13.0[16.7 µM]
O=C(NCc1ccccc1)[C@H]1CCCN1C(=O)[C@H]1CCCN1C(=O)c1ccccc1C(F)(F)F,-14.1
Cc1noc(C)c1S(=O)(=O)N1CCCc2nc(-c3ccccc3)ccc21,-34.2
COCC(=O)Nc1ccc2c(c1)C(=O)N(C)C[C@H](OC)[C@@H](C)CN(C(=O)c1ccccc1)[C@@H](C)CO2,-7.3[16.7 µM]
CO[C@H]1CC[C@@H]2CCOc3c(C#N)cccc3C(=O)N(C)[C@@H](C)C(=O)N(C)C[C@H]1O2,-22.4[16.7 µM]
C[C@@H]1CN([C@@H](C)CO)C(=O)c2cc(NC(=O)c3ccncc3)ccc2O[C@H]1CN(C)Cc1ccc(Cl)c(Cl)c1,20.3[16.7 µM]
COc1ccc(N=C2Sc3ccccc3[C@@H]3C[C@H]4[C@H](CON4C)CN23)c(OC)c1,9.9
